Assay outcomes deposited in PubChem by National Center for Advancing Translational Sciences (NCATS).
N370S GC mod: N370S glucocerebrosidase modulation, Gaucher chaperone candidate. P04062. N370S GC spleen homogenate, 4MU-glucoside fluorescence. Potency, µM (doses to about 59.4 µM), for inactives: at the highest dose activity change, negative = inhibition, usual class: inhibitors. 0.092% of 330,000 active. AID 2101; active = well fitted inhibition curve with a large enough effect; inconclusive = small, poorly fitted or top-dose-only effect, or effect the other way, or another doubt; inactive = no such curve, though single readings can be large or run the other way;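 also: 0% = full enzyme activity and -100% = no enzyme basal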
Numbers without * were called inactive; ? = inconclusive; & = joins results of further samples. Potency is read from the fitted curve at half-maximal effect. A portion of the library, and most or all hits are left out here.

cpd	SMILES	N370S GC mod
1	CN(C)CCOC(=O)NC12CC3CC(CC(C3)C1)C2	-3.0%
2	COc1ccccc1CNC(=O)CN(C)S(=O)(=O)c1ccc(F)cc1	-4.1%
3	CC(C)(C)c1ccc(C(=O)NCc2nnc(SCC(=O)NC3CCCC3)o2)cc1	-9.1%
4	O=C(c1cnn(C(=O)COc2ccccc2F)c1)c1cc(F)ccc1O	5.4%
5	CCOC(=O)N1CCN(C(=O)c2cc(C)no2)CC1	-1.9%
6	Cc1cc(Cl)ccc1OCC(=O)N1CC(C)CC(C)C1 (stereo not given)	8.6%
7	O=C(O)c1ccccc1N/C=C\[N+](=O)[O-]	4.4%
8	COc1ccccc1N1CCN(/N=C/c2ccc(OC)c(OC)c2OC)CC1	1.7%
9	Cc1ccc(CN2CCN(C3CSCCSC3)CC2CCO)cc1 (stereo not given)	0.5%
10	CCCc1nn(C)c(C(=O)Nc2cccc(C)c2)c1Cl	-11.7%
11	CCOC(=O)c1ccccc1NC(=O)c1cncc(Br)c1	6.9%
12	CSc1ncccc1C(=O)N1CCCC(N2CCN(c3ccccc3F)CC2)C1 (stereo not given)	-4.3%
13	Cc1cccc(CC(=O)NCCS(=O)(=O)N2CCN(c3cccc(Cl)c3)CC2)c1	-4.0%
14	Cc1ccc(Cn2cc(/C=C/C(=O)O)c(-c3ccccc3)n2)cc1	-1.4%
15	CCN(CC)S(=O)(=O)c1ccc(-c2csc(C)n2)cc1	-2.9%
16	O=C(CN1C(=O)C2C3C=CC(C3)C2C1=O)Nc1nc(-c2ccccn2)cs1 (stereo not given)	2.5%
17	CCOc1ccc(-c2cc(CCCC(=O)N3CCN(c4ccc(OC)cc4)CC3)no2)cc1	8.4%
18	Cc1cc2nsnc2c(S(=O)(=O)N2CCN(C)CC2)c1C	-2.6%
19	CCOC(=O)c1[nH]c(C)c(C(=O)OCC(=O)NC2CCS(=O)(=O)C2)c1C (stereo not given)	-3.6%
20	CCCCNC(=O)CCNC(=O)c1ccc(C(C)(C)C)cc1	-1.8%

By substructure, the entries above containing a COOH group
cpd	SMILES	N370S GC mod
7	O=C(O)c1ccccc1N/C=C\[N+](=O)[O-]	4.4%
14	Cc1ccc(Cn2cc(/C=C/C(=O)O)c(-c3ccccc3)n2)cc1	-1.4%

More structures:
cpd	SMILES	N370S GC mod
21	Cc1nc(=O)c(-c2ccccc2)c(C)n1-c1ccc(S(N)(=O)=O)cc1	1.5%
22	CCN(CC)CCOC(=O)C(Cc1cccc2ccccc12)CC1CCCO1 (stereo not given)	-6.3%&-2.2%
23	COc1ccc(S(=O)(=O)N2CCCCCC2)cc1NC(=O)c1ccccc1	-0.2%
24	CC(C)=CC(=O)OCC(=O)Nc1ccc(Cl)cn1	10.7%
25	S=C(Nc1ccccc1)Nc1ccc(OCc2ccccc2)cc1	5.2%
26	CCC1CCCCN1CCCNC(=O)Cn1ncn2nc(-c3ccc(OC)cc3)cc2c1=O (stereo not given)	-7.9%
27	Cn1cccc1C(=O)C(=O)Nc1cccc(Cl)c1Cl	1.0%
28	COc1ccccc1CO/N=C/NC(=O)c1c(OC)ccnc1Oc1ccc(F)cc1	12.1%
29	O=C(CSc1nc(C(F)(F)F)cc(=O)[nH]1)N1CCCCCC1	-17.1%
30	COc1ccccc1C(c1nnnn1CCc1ccccc1)N1CCN(c2ccccc2)CC1 (stereo not given)	2.6%
31	Cc1nn2c3ccccc3nc2n(C)c1=O	3.3%
32	CCOC(=O)c1ccc(S(=O)(=O)N2CCC(C(=O)Nc3nnc(C)o3)CC2)cc1	-7.5%
33	NC(=O)c1c(NC(=O)c2ccccc2Cl)sc2c1CCC2	?
34	COC(=O)c1ccc(CNC(=O)COC(=O)CCC2CCCC2)cc1	5.7%
35	CC(C)(C)c1ccc(OCCCC(=O)Nc2cccc(S(=O)(=O)N3CCOCC3)c2)cc1	-15.9%
36	CCOC(=O)N1CCC(NC(=O)CSc2cc(=O)n(CC)c3ccccc23)CC1	?
37	O=C(OCc1ccc(Br)cc1F)c1cc2ccccc2oc1=O	7.1%
38	Cc1ccc([N+](=O)[O-])cc1S(=O)(=O)Nc1ccc(OCC(=O)N2CCOCC2)cc1	-5.6%
39	O=C1c2nc3cc(-c4ccco4)[nH]n3c(=O)c2CN1C1CCCCC1	15.4%
40	Cc1cc(C)c2sc(N(CCCN(C)C)C(=O)c3ccc(S(=O)(=O)N(C)C4CCCCC4)cc3)nc2c1	?
41	O=C(NCc1ccc2c(c1)OCO2)c1cccc(S(=O)(=O)N2CCCCC2)c1	9.2%
42	CCN1CC(CN(C)Cc2nc(COc3ccccc3)no2)CC1=O (stereo not given)	13.0%
43	COc1ccc(CCN2C(=NC(=O)CC(C)C)SC3CS(=O)(=O)CC32)cc1 (stereo not given)	8.4%
44	CN(CCNC(=O)C1CCN(c2ncnc3c2nc2n3CCCCC2)CC1)Cc1ccccc1	3.5%
45	O=C(COC(=O)/C=C/c1ccccc1Cl)NCCc1ccc(Cl)cc1Cl	3.6%
46	Cc1noc(C)c1S(=O)(=O)Nc1ccc(C(C)C)cc1	-5.9%
47	O=C1CSc2ccc(S(=O)(=O)NCc3ccc(F)cc3)cc2N1	-12.5%
48	CCCc1c(O)nc(SCC(=O)NCCc2ccc(OC)c(OC)c2)[nH]c1=O	-19.2%
49	COc1ccc(NC(=O)C2CCCCN2N)cc1OCC(C)C (stereo not given)	-9.4%
50	CCCCc1sc(-c2c(C#N)c(N)nc3c2CCCCC3)cc1[N+](=O)[O-]	29.2%
51	CC1CN(C(=S)NC(=O)c2ccco2)CC(C)O1 (stereo not given)	-1.5%
52	CCN(CC)CCCN1C(=O)C(O)=C(C(=O)c2ccc(C)o2)C1c1ccc(C)o1 (stereo not given)	0.0%
53	CC(C)NC(=S)N/N=C/c1sc(N2CCCCC2)nc1-c1cccs1	-9.3%
54	Cc1nn(-c2ccccc2)nc1C(=O)NN	4.1%
55	CCOC(=O)c1ccc(-n2c(C)nc3ccccc3c2=O)cc1	6.4%
56	CC(=O)NC1C(Oc2ccccc2C)OC2COC(c3ccco3)OC2C1O (stereo not given)	0.5%
57	COc1ccc(/C=C/C(=O)OCC(=O)Nc2cccc(Oc3ccccc3)c2)c(OC)c1	-9.9%
58	O=C(NCc1ccccc1)C1=C[C@H](c2coc3ccccc3c2=O)C[C@H](OCCCCO)O1	7.4%
59	Cc1ccc(-n2c(CSc3nc(C)cc(C)n3)n[nH]c2=S)cc1	4.4%
60	O=C(/C=C/c1ccc2c(c1)OCO2)Nc1cccnc1	-3.8%
61	CCOC(=O)N1CCN(c2ccc(C(C)=O)cc2F)CC1C (stereo not given)	-9.5%
62	Cc1noc(C)c1COC(=O)c1ccccc1NC(=O)Cc1ccccc1	21.1%
63	COCCN(C(=O)CNC(=O)c1cccs1)C(C(=O)NC1CCCC1)c1cccs1 (stereo not given)	3.0%
64	CNC(=S)NNC(=O)c1sccc1C	26.5%
65	O=C(CC1C(=O)NCCN1Cc1cccc(Oc2ccccc2)c1)NCCc1cscn1 (stereo not given)	-15.3%
66	Cc1ccc(-c2nc3ccccc3c(=O)n2-c2c(C)n(C)n(-c3ccccc3)c2=O)cc1	-6.4%
67	Cc1ccc(N(C(=O)C2CCCC2)C2C=CS(=O)(=O)C2)cc1 (stereo not given)	3.9%
68	CNC(=O)c1cc(S(=O)(=O)Nc2ccc3c(c2)OCCO3)ccc1C	-2.0%
69	CCn1c(=O)n(Cc2ccco2)c(=N)c2c3c(sc21)COC(C)(C)C3	3.8%
70	CN(C)c1cccc(C(=O)NCc2ccccc2Cl)c1	0.1%

(listing goes on)
cpd	SMILES	N370S GC mod
71	COc1cc2c(cc1OC)CN(C(=O)NS(=O)(=O)c1ccc(C)cc1)CC2	8.3%
72	CC(=O)Nc1ccc(CN2CCN(Cc3ccc(F)c(F)c3)C(CCO)C2)cc1 (stereo not given)	2.2%
73	CCN(CC)S(=O)(=O)c1ccc(N2CCCCC2)c(NC(=O)C2=COCCO2)c1	1.8%
74	Cc1nc2ccccc2n1C1CCN(C(=O)Nc2ccccc2)CC1	-0.2%
75	O=C(Cc1ccc(S(=O)(=O)N2CCCCC2)s1)Nc1ccc(F)cc1F	2.9%
76	Cc1ccc(C(=O)C2=C(O)C(=O)N(Cc3ccccc3)C2c2cccnc2)o1 (stereo not given)	-4.3%
77	CCCN(CC(=O)Nc1ccccc1OC)C(=O)c1cc(-c2cccs2)nn1-c1ccccc1	-9.7%
78	COc1ccc(/C=N/NC(=O)c2cc(C)n(-c3ccccc3)c2C)cc1OC	-3.1%
79	CC(C)(C)OC(=O)NCCCC[C@H](NC(=O)c1nc[nH]c1C(=O)NC1CCN(C(=O)OC(C)(C)C)CC1)C(=O)OC(C)(C)C	6.1%
80	O=c1c2oc3ccccc3c2ncn1Cc1ccc(F)cc1	5.7%
81	CCOc1c(CNc2nnnn2C)cccc1OC	8.4%
82	Clc1cccc(-c2nn3c(Cn4cnc5ccccc54)nnc3s2)c1	-0.1%
83	CN1CCN(S(=O)(=O)c2cccc(C(=O)Oc3cccc(Br)c3)c2)CC1	0.3%
84	Cc1nc2cc(C(=O)OCC(=O)N(CC(C)C)C3CCS(=O)(=O)C3)ccc2n1-c1ccccc1 (stereo not given)	-8.3%
85	Cc1nn(C)c(Cl)c1/C=N/OC(=O)c1ccccc1	15.4%
86	COCCNC(=O)C1c2cc(OC)c(OC)cc2C(=O)N(C)C1c1cccnc1 (stereo not given)	3.1%
87	CCN(CC(=O)Nc1ccc(NC(C)=O)cc1)C(=O)/C=C/c1cn(Cc2ccccc2)nc1-c1cccnc1	-3.7%
88	NC(=O)CC(NC(=O)Cc1ccc(Br)cc1)c1ccc(NCCc2ccc(Cl)cc2)c([N+](=O)[O-])c1 (stereo not given)	-12.5%
89	Cn1c(COc2ccc(F)cc2)nc2ccccc21	5.7%
90	O=C1CC(C(=O)N(c2ccccc2)C(C(=O)NC2CCCC2)c2ccncc2)CS1 (stereo not given)	10.2%
91	O=C1CC(c2ccccc2)CC(O)=C1C=Nc1cccc(Cl)c1 (stereo not given)	4.9%
92	CN(C)CCNC(=O)/C(=C/c1ccc(-c2cccc(Cl)c2)o1)NC(=O)c1ccccc1	-3.2%
93	O=C1CC(N2CCN(c3ccc(F)cc3)CC2)C(=O)N1c1ccc2c(c1)OCO2 (stereo not given)	15.4%
94	Cn1cnnc1SCC(=O)NCCc1ccc(Cl)cc1Cl	8.8%
95	CCN(CC)CCNC(=O)CCc1nn(C)c(=O)c2ccccc12	14.6%
96	Cc1nn2cnc3sc4c(c3c2nc1=O)CCCC4	1.6%
97	CCCCn1ccnc1C(=O)c1cccc(S(=O)(=O)N2CC(C)CC(C)C2)c1 (stereo not given)	-6.4%
98	Cc1nnsc1S(=O)(=O)Cc1ccccc1C(F)(F)F	-2.8%
99	Cc1cc(=O)n2nc(N3CCCC(C(=O)NC4CCCCC4C)C3)sc2n1 (stereo not given)	-8.9%
100	CCc1ccc(-c2nc(CSCC(=O)NC3CC3)c(C)o2)cc1	-2.2%
101	Cc1ccc(C)c(NC(=S)N(C)C)c1	1.9%
102	Cc1nn(Cc2c(Cl)cccc2Cl)c(Cl)c1/C=N/NC(=O)c1cccnc1	5.6%
103	COc1cccc(S(=O)(=O)Nc2ccc(C(=O)N3CCN(C(=O)c4ccco4)CC3)cc2)c1	-22.1%
104	O=C(c1oc(=O)c2ccccc2c1-c1ccccc1)N1CCOCC1	23.1%
105	COc1ccc(S(=O)(=O)N2CC(C(=O)O)Oc3ccc(CC(=O)O)cc32)cc1 (stereo not given)	5.7%
106	O=C(NCCc1ccccc1)c1ncn[nH]1	7.5%
107	CCOC(=O)/C=C/c1cnn(-c2ccccc2)c1	8.0%
108	COc1ccc(OCc2nnc(SCC(=O)N(C)Cc3ccccc3)n2N)cc1	-8.1%
109	CCO/C=C1\N=C(c2ccc(F)cc2)OC1=O	2.6%
110	CC(C)NC(=O)C(=O)NCC(c1ccc2c(c1)OCO2)N1CCOCC1 (stereo not given)	-1.5%
111	Cc1c(NC2(C#N)CCCCC2)c(=O)n(-c2ccccc2)n1C	-11.3%
112	C=CCn1c(CCNC(=O)c2cccs2)nnc1SCC(=O)Nc1cccc(C(C)=O)c1	3.2%
113	C/C(Cl)=C\Cn1c(N2CCCCCC2)nc2c1c(=O)n(C)c(=O)n2C	3.1%
114	CCN(CC)c1ccc(N/C(N)=N/c2nc(C(F)(F)F)cc(=O)[nH]2)cc1	-5.8%
115	COC(=O)c1cc(OC)c(OC)cc1NC(=S)N1CCCC(CO)C1 (stereo not given)	3.4%
116	Cc1cc(=O)n2nc(N3CCC(C(=O)N4CCN(c5ccccc5)CC4)CC3)sc2n1	-4.9%
117	COc1ccc(-c2nn(-c3ccccc3)cc2/C=N/NC(N)=S)cc1OC	-18.2%
118	Cc1ccc(NC(=O)Nc2cc(S(C)(=O)=O)ccc2Cl)cc1	3.2%
119	O=C(CNC(=O)Cn1cnc2sc3c(c2c1=O)CCCC3)NCc1ccccn1	1.2%
120	Cc1ccc(NC(=O)CCN2C(=O)CSC2=O)cc1	6.0%

3 of the entries above in order of the N370S GC mod value, highest first.
| cpd | Molecule | N370S GC mod |
| --- | --- | --- |
| 112 | C=CCn1c(CCNC(=O)c2cccs2)nnc1SCC(=O)Nc1cccc(C(C)=O)c1 | 3.2% |
| 113 | C/C(Cl)=C\Cn1c(N2CCCCCC2)nc2c1c(=O)n(C)c(=O)n2C | 3.1% |
| 119 | O=C(CNC(=O)Cn1cnc2sc3c(c2c1=O)CCCC3)NCc1ccccn1 | 1.2% |

(listing goes on)
cpd	SMILES	N370S GC mod
121	CCN(CC)Cc1c(C(=O)N/N=C/c2cccc(OCc3cccc(Cl)c3)c2)nnn1-c1nonc1N	11.2%
122	COc1ccc(NC(=O)c2ccc(COc3ccccc3)o2)c(OC)c1	1.8%
123	COc1cccc2cc(C(=O)N(C)C)c(=O)oc12	-13.5%
124	COc1ccc(O)c(CN2CCCC(N3CCc4ccccc4C3)C2)c1 (stereo not given)	-10.7%

Structural class: the entries above with a CF3 group.
cpd	SMILES	N370S GC mod
29	O=C(CSc1nc(C(F)(F)F)cc(=O)[nH]1)N1CCCCCC1	-17.1%
98	Cc1nnsc1S(=O)(=O)Cc1ccccc1C(F)(F)F	-2.8%
114	CCN(CC)c1ccc(N/C(N)=N/c2nc(C(F)(F)F)cc(=O)[nH]2)cc1	-5.8%
